D2 PAM – Beta-Arrestin HTS for Positive Allosteric Modulators of the Human D2 Dopamine Receptor: Potentiators | DiscoveRx D2 beta-arrestin cells, luminescence, 90 min; 100% = 57 uM dopamine signal | potentiation, % (test concentration not listed) | actives 0.23% (n = 360,000); active = potentiation of 50% or more; inconclusive = 30% to 50%; inactive = 30% or less;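 also: compound concentration not given in the record; tested on top of an EC20 dose of dopamine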
Target sequence (P14416 whole entry, looked up): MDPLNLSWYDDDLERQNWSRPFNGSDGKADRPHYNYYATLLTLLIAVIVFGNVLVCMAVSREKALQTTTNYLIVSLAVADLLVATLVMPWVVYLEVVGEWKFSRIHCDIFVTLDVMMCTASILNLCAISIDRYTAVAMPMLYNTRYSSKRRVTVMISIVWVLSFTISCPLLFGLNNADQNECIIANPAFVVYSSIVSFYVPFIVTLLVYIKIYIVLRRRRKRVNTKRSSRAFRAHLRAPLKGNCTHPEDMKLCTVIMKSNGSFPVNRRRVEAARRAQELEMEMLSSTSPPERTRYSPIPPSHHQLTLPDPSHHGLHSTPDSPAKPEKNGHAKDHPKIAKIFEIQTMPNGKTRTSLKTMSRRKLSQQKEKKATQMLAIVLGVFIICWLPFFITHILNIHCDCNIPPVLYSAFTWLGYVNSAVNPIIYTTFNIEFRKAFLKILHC
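PathHunter beta-arrestin assay in DiscoveRx D2 cells. Compounds were added with an EC20 of dopamine (50 nM final) for 90 min at 37 deg C. Luminescence was read 1 h after detection reagent, with 57 uM dopamine as the EC100 control.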
D2 agonist – Beta-Arrestin HTS for Positive Allosteric Modulators of the Human D2 Dopamine Receptor: Agonists; DiscoveRx PathHunter D2 beta-arrestin, luminescence, 90 min; 100% = 57 uM dopamine signal; actives 0.084% (n = 360,000); D(2) dopamine receptor (Homo sapiens), P14416; activation, % (concentration not given with the values); in the data active = activation above about 40%; inconclusive = about 15% to 40%; inactive = below about 15%; also: compound concentration not given in the record; the text of the record calls up to 30% inactive
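DiscoveRx PathHunter D2 beta-arrestin cells (2,100/well) attached overnight, then compound-stimulated 90 min at 37 C in HBSS/10 mM HEPES/0.1% Tween-20 buffer; beta-galactosidase complementation read by luminescence after 1 h at ambient temperature. Dopamine 57 uM final (EC100) as control.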
gsp agonist – qHTS for Agonist of gsp, the Etiologic Mutation Responsible for Fibrous Dysplasia/McCune-Albright Syndrome: qHTS | gsp mutant cells, cAMP HTRF, 30 min; control for the full effect not named in the record | Potency, µM (top dose mostly 76.9 µM), for inactives: top-dose activation (cAMP increase), hits mostly activators | actives 0.13% (n = 340,000); active = well fitted activation curve with a large enough effect; inconclusive = small, poorly fitted or top-dose-only effect, or another doubt; inactive = no such curve, though single readings can be large or run the other way; cell line not stated here;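 also: phosphodiesterase inhibitor Ro 20-1724 added with compounds to block cAMP breakdown; potency is read from the fitted curve at half-maximal effect; nearly all actives have a fitted effect of over 60% in size; about a fifth of the inactives were tested at one dose only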
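Cells in DMEM/10% FBS with G418 were pretreated with compounds in DMSO plus […] (300 uM stock) for 30 min at 37C. cAMP was measured by HTRF (cAMP-d2 plus anti-cAMP antibody-K) after 30 min at room temperature.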
gsp antag – qHTS for Antagonists of gsp, the Etiologic Mutation Responsible for Fibrous Dysplasia/McCune-Albright Syndrome: qHTS; AID 624288, 2012; gsp-mutant cells, cAMP HTRF, 30 min; control for the full effect not named in the record; Potency, µM (titrated, usually from 76.9 µM), for the others: top-dose activity change, negative = inhibition, usual class: inhibitors; actives 0.4% (n = 340,000); active = falling curve of any shape with a large fitted effect; inconclusive = falling curve, mostly with a smaller effect; inactive = flat or rising curve; cell line not stated here;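 also: intracellular cAMP measured with PDE inhibitor Ro 20-1724 present during compound exposure; potency is read from the fitted curve at half-maximal effect; % is scaled to controls: 0 for no effect and ±100 for the full control effect; nearly all actives have a fitted effect of over 65% in size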
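Measurement of cellular cAMP by homogeneous time-resolved fluorescence following a 30 min compound exposure at 37C. The PDE inhibitor […] was present throughout; the assay buffer was DPBS with 0.05% BSA and 0.005% Tween 20.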
Six1-Eya2 blk – qHTS Assay for Inhibitors of the Six1/Eya2 Interaction | Homeobox protein SIX1 (Homo sapiens) + Protein phosphatase EYA2 (Homo sapiens), … | AlphaScreen GST-Six1/His-Eya2 binding, biochemical; active compounds read low; control for the full effect not named in the record | activity change, % (concentration not given with the values) | actives 0.56% (n = 360,000) | AID 651725, 2012; in the data active = activity change below about -65%; inconclusive = about -30% to -65%; inactive = above about -30%; also: % is scaled to controls: 0 for no effect and ±100 for the full control effect
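Six1/Eya2 binding was read as AlphaScreen signal after compounds were pinned into GST-Six1 plus His-tagged Eya2 (5X stock 250/500 nM) in pH 8.0 Tris/NaCl/TCEP buffer, beads added, then incubated 1 h, 37 C, dark.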
CtBP-E1A inh – qHTS Assay for Inhibitors of the CtBP/E1A Interaction; actives 0.49% (n = 340,000); CtBP / adenovirus E1A interaction (AlphaScreen); activity change, % (concentration not given with the values); AlphaScreen GST-E1A/His-CtBP binding, 1536-well; active compounds read low; control for the full effect not named in the record; AID 651724, 2012; in the data active means activity change below about -65%; inconclusive means about -30% to -65%; inactive means above about -30%; also: % is scaled to controls: 0 for no effect and ±100 for the full control effect
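Steps: dispense buffer (Tris pH 8.0, NaCl 300 mM, TCEP 1 mM, BSA, Tween 20); add 5X protein mix (GST-E1A, His-CtBP, 125 nM each); pin 23 nL compound; 2 h at 37 °C, dark; add 5X beads (50 ug/mL); 1 h; read.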
* marks the source's active call; other numbers are inactive results; ? = inconclusive; nt = no result given; & = joins results of further samples; [ ] = remark or other dose. Outcome played no part in choosing rows (roughly 1.4% active in at least one column).

D2 PAM,D2 agonist,gsp agonist,gsp antag,Six1-Eya2 blk,CtBP-E1A inh,SMILES
4,0.3,-17%,3%,-6,-12,COC(=O)c1sccc1NC(=O)c1cccnc1
-10,-1.9,-11%,2%,15,-4,O=C(CNS(=O)(=O)c1cccs1)N1CCN(c2ccccn2)CC1
-13,-2.5,2%[15.4 µM],11%,-1,3,CN(C)CCCCOc1ccccc1F
-5,-1.2,1%,-12%,9,-8,Cc1ccc(C)n1NC(=O)c1cccs1
-13,0.9,23%,6%,?,nt,COc1ccc(N2CCN(CCC(O)c3ccc4ccccc4c3)CC2)cc1 (configuration not stated)
-7,-6.4,-9%[15.4 µM],-45%,2,-1,CN(Cc1cccs1)C(=O)/C=C/c1ccccc1[N+](=O)[O-]
-13,2.4,0%,6%,-18,-17,CCn1ncc(/C=N\NC(=O)c2ccc3c(c2)c(C)c(C)n3Cc2ccccc2)c1C
-30,0.2,-22%,-28%,-4,0,COC(=O)c1[nH]c2ccc(Cl)cc2c1NC(=O)CN1CCc2cc(OC)c(OC)cc2C1

(further entries)
D2 PAM,D2 agonist,gsp agonist,gsp antag,Six1-Eya2 blk,CtBP-E1A inh,SMILES
-11,8.5,nt,nt,-8,-4,Cc1ccc(S(=O)(=O)NC(=O)Cn2nnc(-c3ccccc3)c2COc2ccc3ccccc3c2)cc1
-13,-0.3,-6%,-4%,-8,-3,O=C1CN(C(=O)c2cc([N+](=O)[O-])ccc2Cl)C(c2ccc(F)cc2)c2cc(F)ccc2N1 (configuration not stated)
-7,-3.0,-40%[inhibitor],7%,1,-11,COc1cc(C2NC(=O)C(C#N)=C(S)N2c2ccc(C)cc2)ccc1OC(C)C (configuration not stated)
10&16,12&13,-77%[inhibitor],-6%,4&-2,3&-10,COc1cc(NC(=O)c2csc(-c3ccncc3)n2)cc(C(=O)Nc2cccc(C(F)(F)F)c2)c1
4,0.5,nt,nt,?,?,COc1ccc(C(C#N)=C2C=CC(=NO)c3ccccc32)cc1
23,-0.6,-7%,1%,4,-23,COc1ccc(NS(=O)(=O)c2ccc(C)c(C(=O)NCC(c3cccs3)N3CCOCC3)c2)cc1 (configuration not stated)
6,-2.4,5%,-13%,6,-2,CCN(CC(=O)Nc1ccc(NC(C)=O)cc1)C(=O)C1COc2ccccc2O1 (configuration not stated)
-4,-4.0,1%[15.4 µM],-4%,2,-2,NC(=O)NCc1cccnc1

Further compounds:
D2 PAM,D2 agonist,gsp agonist,gsp antag,Six1-Eya2 blk,CtBP-E1A inh,SMILES
-1,-2.1,1%,0%,?,?,Cc1cc(C)n(-c2ncc(-c3ccccc3)nn2)n1
-8,-2.4,-16%,-5%,6,-3,COc1ccc(NC(=O)CSc2cc(C)ccc2C)cn1
-1,-4.0,nt,nt,-1,-25,CC1(C(=O)NS(=O)(=O)c2ccc(C#N)cc2)CCN1C(=O)CCc1ccc(Cl)cc1Cl (configuration not stated)
-4,0.3,0%[15.4 µM],6%,-9,1,Cn1cc(C=O)c2cc(S(=O)(=O)N3CCOCC3)ccc21
-1,-4.2,-18%,23%,28,0,CCOc1ccc(-c2nnn(CC#N)n2)cc1OC
-8,1.8,-11%,1%,0,2,CCCCNC(=O)CN(c1ccc(Cl)c(Cl)c1)S(C)(=O)=O
-1,-1.3,9%[15.4 µM],-18%,-5,-29,CC(Nc1nc(-c2ccc3c(c2)NC(=O)CO3)cs1)c1ccccc1 (configuration not stated)
1,9.2,23%,17%,-1,4,CC(=O)N1CC[n+]2c(-c3ccc(Cl)cc3Cl)csc21

Next records.
D2 PAM,D2 agonist,gsp agonist,gsp antag,Six1-Eya2 blk,CtBP-E1A inh,SMILES
7,0.2,5%,-3%,-28,?,Cc1ccc(-n2[nH]c(C)c(C=Nc3ccc4[nH]c(=O)[nH]c4c3)c2=O)cc1C
-2,-1.3,2%,4%,4,5,CC1=C(C)CC(C(=O)c2ccccc2)C(C(=O)O)C1 (configuration not stated)
-6,-0.8,-8%,-7%,-1,4,C=CCn1c(-c2cccn(Cc3ccccc3)c2=O)n[nH]c1=S
-7,1.4,-3%[15.4 µM],-15%,7,0,CCCN1CCN(C(=O)c2oc3c(Cl)cccc3c2C)CC1
-3,-3.4,-46%[inhibitor],-3%,-4,3,Cc1ccc(NC=C(S(=O)(=O)c2ccccc2)S(=O)(=O)c2ccccc2)c(C)c1
-1,1.5,11%,11%,4,5,CC1CCc2c(nc3ncnn3c2N2CCN(c3ccccc3F)CC2)C1 (configuration not stated)
4,-3.3,-4%,-14%,-2,4,COc1ccc(CN2C(=O)CC(Cc3cc(C)cc(C)c3)C2=O)cc1OC (configuration not stated)
-7,1.2,-58%[inhibitor],8%,-1,-15,Fc1ccc(NCc2cccnc2)cc1F

(list continues)
D2 PAM,D2 agonist,gsp agonist,gsp antag,Six1-Eya2 blk,CtBP-E1A inh,SMILES
-40,-9.0,-1%,21%,-21,-6,CN(C)CCNS(=O)(=O)c1ccc(N2CCN(c3ccc(F)cc3)CC2)c([N+](=O)[O-])c1
-15,2.7,nt,nt,-25,-19,CC(=O)c1ccc(-c2cnc3c(NC=O)cc(-c4ccc(N5CCN(C)CC5)cc4)cn23)cc1
-9,-0.5,-38%[inhibitor],-2%,-2,2,COC(=O)c1cn(NC(=O)C2CCC(C)CC2)c(=O)c2ccccc12 (configuration not stated)
0,-0.5,4%[15.4 µM],-15%,-1,-5,COC(=O)Nc1ccc(S(=O)(=O)N2CCC(C(=O)N3CCC(C)CC3)CC2)cc1
-7,-3.2,-10%,-11%,-15,-1,O=C(Cc1ccc([N+](=O)[O-])cc1)c1c(O)cc(O)cc1O
-9,0.2,9%,7%,2,3,COc1ccc(CNC(=O)c2c(C)nc3ccccn23)cc1
-5,1.9,20%[15.4 µM],-21%,5,10,Cc1c(NC(=O)c2cc(-c3ccc(F)cc3)on2)c(=O)n(-c2ccccc2)n1C
-2,-2.3,-5%,1%,0,-2,O=C(NCC1CCCO1)c1cc2n(n1)C(C(F)(F)F)CC(c1ccc(Br)cc1)N2 (configuration not stated)

The results go on:
D2 PAM,D2 agonist,gsp agonist,gsp antag,Six1-Eya2 blk,CtBP-E1A inh,SMILES
-32,-4.7,4%,3%,-3,-2,Cc1ccccc1C(=O)NCC(=O)NNC(=S)NC(=O)c1ccccc1C
-16,-4.6,-22%,-17%,-5,3,CC1CCN(C(=O)Cn2cc(C(=O)c3ccco3)c3ccccc32)CC1
2,-3.3,19%,2%,2,7,O=C1OCc2cc(NC(=O)C3COc4ccccc4O3)ccc21 (configuration not stated)
-8,-5.4,nt,nt,2,-21,Cc1ccc2c(CN3CCN(c4ccc(Cl)c(Cl)c4)CC3)cc(=O)oc2c1
-11,-3.3,5%[15.4 µM],-9%,1,-7,CC(/C=C/c1ccco1)=N/NC(=O)CNc1ccccc1C
8,11,-2%,34%[activator],-73*,-81*,O=c1[nH]c2ccc(Cl)cc2c(-c2ccccc2)c1CN1CCOCC1
-12,-1.1,-2%,-2%,10,0,O=C1S/C(=C\c2ccccc2)C(=O)N1CC(O)Cn1c2ccccc2c2ccccc21 (configuration not stated)
-1,1.5,-18%,-3%,-1,nt,Cc1nn2c(=O)c3c4c(sc3nc2n1-c1ccccc1)COC(C)(C)C4

Results in D2 PAM, for 2 of the compounds above:
| SMILES | D2 PAM |
| --- | --- |
| O=C1OCc2cc(NC(=O)C3COc4ccccc4O3)ccc21 (configuration not stated) | 2 |
| O=c1[nH]c2ccc(Cl)cc2c(-c2ccccc2)c1CN1CCOCC1 | 8 |

Some of these compounds in order of length of the SMILES, falling:
D2 PAM,D2 agonist,gsp agonist,gsp antag,Six1-Eya2 blk,CtBP-E1A inh,SMILES
7,0.2,5%,-3%,-28,?,Cc1ccc(-n2[nH]c(C)c(C=Nc3ccc4[nH]c(=O)[nH]c4c3)c2=O)cc1C
-8,-5.4,nt,nt,2,-21,Cc1ccc2c(CN3CCN(c4ccc(Cl)c(Cl)c4)CC3)cc(=O)oc2c1
-8,1.8,-11%,1%,0,2,CCCCNC(=O)CN(c1ccc(Cl)c(Cl)c1)S(C)(=O)=O

Next records follow:
D2 PAM,D2 agonist,gsp agonist,gsp antag,Six1-Eya2 blk,CtBP-E1A inh,SMILES
-4,-1.8,19%,10%,0,3,O=C(CNCc1ccc(Cl)cc1)Nc1ccc2c(c1)OCCO2
-8,-2.5,26%,7%,-3,-2,Cc1cc(NC(=O)CCC(=O)N(CC(=O)NC2CCCC2)Cc2ccc(F)cc2)no1
-8,-0.1,?,-11%,5,1,CC1(C)Cc2c(sc3[nH]c(=S)[nH]c(=O)c23)CO1
-11,-2.9,-2%,-13%,-4,-10,CN(C)/C=C/C(=O)c1cnc(-c2ccccc2Cl)s1
0,-1.4,10%,-4%,8,0,CCn1c(COc2ccccc2C)nnc1SCC(=O)NC1CCCC1
3,2.0,nt,-14%,9,6,O=c1oc2ccc(C#CC3(O)CCCCC3)cc2cc1-n1cc(-c2ccsc2)nn1
-11,-1.4,-29%,?,-7,-17,CC(C)(C)OC(=O)COc1cc(OCC(=O)OC(C)(C)C)c2c(=O)cc(-c3ccccc3)oc2c1
-15,2.5,nt,nt,-2,4,Cc1cc(F)ccc1-c1cc(C(=O)NCc2ccc(C(F)(F)F)cc2)[nH]n1

(listing goes on)
D2 PAM,D2 agonist,gsp agonist,gsp antag,Six1-Eya2 blk,CtBP-E1A inh,SMILES
23,-0.6,-3%,-7%,1,3,CCc1[nH]nc2c1C1(CCN(C(=O)OCc3ccccc3)CC1)C(C#N)=C(N)O2
5,-0.6,2%,-17%,1,0,Cn1cccc1C(=O)NC(=O)COC(=O)CNS(=O)(=O)c1ccc(Br)cc1
-2,-1.0,-2%[15.4 µM],-3%,-1,-5,COc1ccccc1-c1ccc(SCC(=O)Nc2cc(C)on2)nn1
-8,-2.2,?,1%,-5,3,Cc1cc(Br)ccc1SCC(=O)OCC(=O)c1c(N)n(C)c(=O)n(C)c1=O
-9,-7.4,3%[15.4 µM],-1%,23,16,CCCc1cc(C(=O)Nc2cccc(Cl)c2C)no1
-7,3.4,nt,nt,2,4,Cc1ccc(CC2(C)C(=O)Nc3c(Cl)cccc32)cc1 (configuration not stated)
-1,-1.0,-76%[inhibitor],-7%,9,-19,C=CCn1c(CCc2ccccc2)nnc1SCC(=O)OC

Screening data as filed in PubChem BioAssay.
